Screening results (PubChem BioAssay)
CtBP-E1A blk: qHTS Assay for Inhibitors of the CtBP/E1A Interaction. CtBP / adenovirus E1A interaction (AlphaScreen). AlphaScreen GST-E1A/His-CtBP binding, 1536-well; hits give low values; control for the full effect not named in the record. activity change, % (no concentration beside the values). actives 0.49% (n = 340,000); in the data active means activity change below about -65%; inconclusive means about -30% to -65%; inactive means above about -30%; further: on the % scale 0 is the no-effect control and ±100 the full control effect; compound concentration not given in the record
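GST-E1A and His-tagged CtBP (125 nM each as 5X stock) were preincubated with pin-transferred compound for 2 h at 37 °C in the dark, then glutathione donor and nickel acceptor beads were added for 1 h before AlphaScreen reading.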
Sfp inh: qHTS Assay for Inhibitors of Bacillus subtilis Sfp phosphopantetheinyl transferase (PPTase); AID 1490, 2009; actives 3.5% (n = 310,000); Potency, µM, for inactives: max response, negative = inhibition, actives largely listed as inhibitors; 4'-phosphopantetheinyl transferase ffp (Bacillus subtilis), Q9F4F7; Biochemical Sfp PPTase activity, qHTS; active means well fitted inhibition curve with a large enough effect; inconclusive means small, poorly fitted or top-dose-only effect, or another doubt; inactive means no such curve, though single readings can be large or run the other way;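 further: the enzyme is Sfp with the accession as filed and its product quenches rhodamine fluorescence; potency means the concentration at half of the fitted maximal effect; 0% = enzyme reaction without inhibitor and -100% = no enzyme wells; top concentration of the series not given in the record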
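Compounds were incubated with enzyme (final 15 nM) for 15 min at room temperature before substrate addition started the reaction. Fluorescence at 525 nm excitation, 598 nm emission was recorded immediately and after 30 minutes.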
D2 agonist: Beta-Arrestin HTS for Positive Allosteric Modulators of the Human D2 Dopamine Receptor: Agonists. D(2) dopamine receptor (Homo sapiens), P14416. AID 624465, 2012. activation, % (concentration not given with the values). DiscoveRx PathHunter D2 beta-arrestin, luminescence, 90 min; 100% = 57 uM dopamine signal. actives 0.084% (n = 360,000); in the data active = activation above about 40%; inconclusive = about 15% to 40%; inactive = below about 15%; further: compound concentration not given in the record; the text of the record calls up to 30% inactive
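Agonist mode: compounds alone added to overnight-plated D2 PathHunter cells for 90 min at 37 C, with 57 uM final dopamine (EC100) defining full response. Beta-arrestin recruitment detected by chemiluminescent reagent, read after 1 h at ambient temperature.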
TRPV1 potentiator: HTS Assay for Compounds that Act as Potentiators of the Vanilloid Receptor 1; potentiation, % at 8.33 µM; actives 0.02% (n = 320,000); Transient receptor potential cation channel subfamily V member 1 (Homo sapiens), Q8NER1; AID 540277, 2011; TRPV1-expressing cells, Fluo-8 calcium influx, capsaicin EC20 potentiation; host cell line not named in the record; control for the full effect not named in the record; active means potentiation above 80%; inconclusive means 30% to 80%; inactive means below 30%; further: 0% is about no effect
Target sequence (Q8NER1 whole entry, looked up): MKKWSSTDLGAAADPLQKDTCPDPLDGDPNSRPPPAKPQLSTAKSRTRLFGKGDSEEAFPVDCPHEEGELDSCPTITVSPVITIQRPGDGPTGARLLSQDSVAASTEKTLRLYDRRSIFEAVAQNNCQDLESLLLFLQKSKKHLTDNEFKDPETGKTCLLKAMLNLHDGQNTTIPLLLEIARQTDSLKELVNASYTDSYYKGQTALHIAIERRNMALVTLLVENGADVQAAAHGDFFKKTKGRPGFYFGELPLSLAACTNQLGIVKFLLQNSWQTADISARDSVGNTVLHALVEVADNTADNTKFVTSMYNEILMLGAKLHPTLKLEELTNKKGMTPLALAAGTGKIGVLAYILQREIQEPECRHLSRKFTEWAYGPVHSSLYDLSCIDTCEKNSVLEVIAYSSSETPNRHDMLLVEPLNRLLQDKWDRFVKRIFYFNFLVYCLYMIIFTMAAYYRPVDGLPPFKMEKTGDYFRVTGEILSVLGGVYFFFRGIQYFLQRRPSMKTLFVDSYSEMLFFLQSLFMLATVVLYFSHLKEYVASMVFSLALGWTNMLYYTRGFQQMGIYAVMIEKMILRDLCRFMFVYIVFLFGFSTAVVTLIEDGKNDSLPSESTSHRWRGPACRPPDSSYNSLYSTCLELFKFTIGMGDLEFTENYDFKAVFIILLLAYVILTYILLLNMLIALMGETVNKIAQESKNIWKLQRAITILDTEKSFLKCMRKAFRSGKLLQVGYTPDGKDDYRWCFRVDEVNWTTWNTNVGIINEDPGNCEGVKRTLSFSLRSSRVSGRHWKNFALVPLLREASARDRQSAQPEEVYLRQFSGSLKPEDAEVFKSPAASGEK
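Fluo-8 calcium influx in TRPV1-expressing cells, kinetic read (ex 480/em 520 nm). Compound added and read 3 min for agonist activity, followed by capsaicin at EC20 final and 2 min further read for enhancement.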
Six1-Eya2 inh: qHTS Assay for Inhibitors of the Six1/Eya2 Interaction | Homeobox protein SIX1 (Homo sapiens) + Protein phosphatase EYA2 (Homo sapiens), … | AlphaScreen GST-Six1/His-Eya2 binding, biochemical; hits give low values; control for the full effect not named in the record | activity change, % (no concentration beside the values) | actives 0.56% (n = 360,000); in the data active = activity change below about -65%; inconclusive = about -30% to -65%; inactive = above about -30%; further: on the % scale 0 is the no-effect control and ±100 the full control effect; compound concentration not given in the record
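AlphaScreen luminescence read after one hour at 37 °C in darkness. Pin-transferred compounds met GST-Six1 and His-Eya2 protein (5X stock 250 nM/500 nM) plus glutathione donor and Ni-chelate acceptor beads (5X, 50 ug/mL).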
D2 potentiator: Beta-Arrestin HTS for Positive Allosteric Modulators of the Human D2 Dopamine Receptor: Potentiators; D(2) dopamine receptor (Homo sapiens), P14416; potentiation, % (test concentration not listed); AID 624464, 2012; DiscoveRx D2 beta-arrestin cells, luminescence, 90 min; 100% = 57 uM dopamine signal; actives 0.23% (n = 360,000); active = potentiation of 50% or more; inconclusive = 30% to 50%; inactive = 30% or less;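 further: compound concentration not given in the record; tested on top of an EC20 dose of dopamine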
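PathHunter beta-arrestin assay in DiscoveRx D2 cells. Compounds were added with an EC20 of dopamine (50 nM final) for 90 min at 37 deg C. Luminescence was read 1 h after detection reagent, with 57 uM dopamine as the EC100 control.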
PINK1 modulator: A Quantitative High throughput Screen to Identify Chemical Modulators of PINK1 Expression | Potency, µM (titrated, usually from 76.6 µM), for inactives: at the top dose activation (PINK1 increase), hits mostly activators | PINK1 immunofluorescence, high-content cytometry, 24 h | actives 0.2% (n = 410,000); active = well fitted activation curve with a large enough effect; inconclusive = small, poorly fitted or top-dose-only effect; inactive = flat fitted curve, though single readings scatter; cell line not stated here;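 further: potency means the concentration at half of the fitted maximal effect; % of control where 0% means no effect; nearly all actives have a fitted effect of over 65% in size; a mitochondrial uncoupler was the plate control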
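Compound titrations (5 concentrations, 24 h) on a stable cell line; DMSO and CCCP controls. Endpoint: fixed-cell PINK1 immunofluorescence with mitochondrial, cell and nuclear markers, scanned by microplate cytometer.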
Numbers without * were called inactive; u = inconclusive; x = no result given; & = joins results of further samples; [ ] = another dose, or the depositor's remark. Not a hit list; 3.7% or so of the library scored in one or more.

SMILES	CtBP-E1A blk	Sfp inh	D2 agonist	TRPV1 potentiator	Six1-Eya2 inh	D2 potentiator	PINK1 modulator
CCN(CC)c1ccc(CNc2ccc3c(c2)ncn3CC)cc1	-10	-19%	5.2	2	-4	5	8.6%
Cc1cc2cc(CNC(=O)Nc3ccccc3)ccc2n1C	-29	11%	0.4	7	u	-11	2.0%[38.3 µM]
CC(CN1CCN(C)CC1)OC(=O)c1ccccc1 (stereo not given)	1	16%	-0.6	0	0	-9	3.7%
CCOc1ccc(CNC(=O)CCn2c(=O)oc3ccccc32)cc1OC	5	18%	-1.4	-3	1	-2	-1.4%
CSc1nc(-c2ccccc2)nc(N2CCOCC2)c1C(C)=O	-14	0%	-1.1	-12	-3	5	0.0%
Cc1ccc(C)c(S(=O)(=O)N2CCN(C(=O)CSc3ccccc3F)CC2)c1	-1	5%	0.1	1	-5	0	1.8%
S=C(c1ccc(Cl)cc1)N1CCN(Cc2ccccc2)CC1	-8	-18%	0.9	-8	7	-16	2.2%
OC(c1cccnc1)c1nc(-c2ccc3c(c2)OCO3)cs1 (stereo not given)	1	x	-2.0	x	-6	-4	1.3%
CC(C)C[C@H](NC(=O)OC(C)(C)C)c1nnc(SCC(=O)Nc2ccc(Br)cc2)o1	-16	19%	-3.5	-4	-14	-2	5.4%
CCCS(=O)(=O)NC(=O)C1(C)CCCN(C(=O)c2ccncc2)C1 (stereo not given)	4	x	-7.6	x	1	2	0.0%
COCCn1cnnc1SCC(=O)Nc1cccc(S(=O)(=O)N(C)c2ccccc2)c1	-1	u	1.4	-4	6	-7	0.1%
CC1=CC(=O)CC(C)(C)C1(O)/C=C/C(C)=C/C(=O)O (stereo not given)	0	-1%&17%	-2.1	-3	3	-1	2.4%
O=C1c2ccccc2C(=O)N1C1(C(=O)NC2(C(=O)O)CCCC2)CCCC1	3	x	-1.3	x	1	4	-1.7%
O=C(c1cc(-c2ccccc2)nc2ccccc12)N1CCc2ccccc2C1	1	15%	-8.3	-17	7	-19	3.8%
COc1ccc(C2Nc3ccccc3C(=O)N2Cc2ccco2)cc1COc1ccc([N+](=O)[O-])cc1 (stereo not given)	-8	2%	3.8	4&3	-10	-4	1.7%&-1.9%
C=CCN1C(=O)c2ccccc2C1(O)Cc1ccccc1 (stereo not given)	5	2%	1.7	5	5	0	4.0%
Cc1cccc(NC(=O)c2ccc(NC(=O)CC3SC(N4CCCC4)=NC3=O)cc2)n1 (stereo not given)	23	x	-3.2	10	-2	11	-1.8%
Cc1c(C(=O)OCCOc2ccccc2)[nH]c2c1C(=O)CCC2	-11	u	-0.7	3	-18	-7	5.5%
COc1cc(Cl)cc(C2NC(=O)NC(C)=C2C(=O)NCc2ccccc2)c1O (stereo not given)	3	18%	0.3	12	5	-1	1.3%[38.3 µM]
Cc1c(CN(C)C(=O)/C=C/c2ccc([N+](=O)[O-])cc2)cnn1C	22	16%	-0.1	-12	18	7	0.5%
O=C(CSc1nc(N2CCCCC2)nc(N2CCCCC2)n1)Nc1nccs1	-3	4%	3.7	13	13	-16	17%
Cc1cc(C)c(NC(=S)NCCO)c(C)c1	x	12%	-5.4	-4	7	-11	3.5%
COc1cc2oc3ccccc3c2cc1N(CC(=O)N(C)C)S(=O)(=O)c1ccc(C)cc1	9	-17%	-1.8	-15	0	-1	0.8%
Cc1c[n+](C)ccc1CC1C([N+](=O)[O-])=C[N-]c2ncnn21 (stereo not given)	x	18%	-3.8	5	8	-4	0.3%
COc1ccc(-c2csc(-c3cccnc3)n2)cc1C	x	50µM*	5.4	5	10	-18	-1.7%
The list goes on.
SMILES	CtBP-E1A blk	Sfp inh	D2 agonist	TRPV1 potentiator	Six1-Eya2 inh	D2 potentiator	PINK1 modulator
Cc1ccc(OCCSc2nc3ccccc3n2CC(=O)O)c(C(C)C)c1	3	14%	0.4	2	3	-1	0.5%
O=C(NCC1CCCO1)c1cc(S(=O)(=O)Nc2ccc(Br)cc2)ccc1Cl (stereo not given)	x	15%	2.1	6	-5	9	3.0%
C/C(N)=C(/C#N)C(=O)CSc1nc2ccccc2c(=O)n1CCCOC(C)C	4	24%	1.1	-18	7	8	-0.1%
C=CCN1C(=O)/C(=C\c2ccc(Oc3nc(N4CCOCC4)nc(N4CCOCC4)n3)c(OC)c2)SC1=S	6	14%	0.6	u	-3	-5	0.4%
COc1ccc(NC(=O)CSc2n[nH]c(=O)n2C2CC2)cc1Cl	-16	x	-0.5	-4	3	-2	-3.9%
CC(OC(=O)CSc1ccc(F)cc1)C(=O)NC1(C#N)CCCCC1 (stereo not given)	7	7%	3.4	-6	6	-9	1.0%
O=C(OCC(=O)N1CCc2ccccc21)c1c2c(nc3ccccc13)CCCC2	-10	11%	-4.2	27	-18	-25	-0.1%
COc1ccc(/C=N/NC(=O)CN2CCCc3ccccc32)c(OC)c1	-22	3%	-4.3	-1	-24	-3	-2.3%
CCOc1cccc(C(=O)Nc2nnc(-c3cccs3)s2)c1	6	23%	-2.0	-29	9	4	2.2%
O=C(Nc1ccc(Nc2ccccc2)cc1)c1ccc(Br)o1	-29	5%	-3.3	1	-24	-21	1.8%
Cc1ccc(SCc2cc(=O)[nH]c(SCC(=O)Nc3cc(Cl)ccc3Cl)n2)cc1	2	-28%	-4.6	8	-2	-8	-0.8%
CCOc1ccc(/C(O)=C2/C(=O)C(=O)N(CCN(C)C)C2c2ccccc2)cc1Cl (stereo not given)	-4	7%	-4.1	-2	-1	-17	0.9%
CCOC(=O)c1c(NC(C)=O)sc2c(O)c(Br)cc(Br)c12	0	35µM*	2.4	9	8	13	-0.1%
c1ccc(NC(=NCc2ccco2)c2ccccc2)cc1	3	22%	-2.8	6	-1	-8	7.4%[38.3 µM]
O=C(c1ccc(S(=O)(=O)Cc2ccccc2Cl)c([N+](=O)[O-])c1)N1CCN(c2ccccn2)CC1	16	1%	2.4	-7	-4	10	0.1%
CCCn1c(=N)n(CC(=O)O)c2ccccc21	1	x	-2.5	x	4	-2	0.4%
Cc1ccsc1C1C(C#N)=C(N)N(N(C)C)C2=C1C(=O)CC(C)(C)C2 (stereo not given)	5	4%	-1.6	-4	3	-3	13%
c1ccc(Cc2nn3c(C4COc5ccccc5O4)nnc3s2)cc1 (stereo not given)	5	14µM*	-4.6	0	-1	-4	x
O=C(COC(=O)c1cccnc1Cl)Nc1cc(S(=O)(=O)N2CCCCC2)ccc1Cl	0	13%	-1.2	-3	3	-2	-0.1%
CC[C@H](C)[C@@H]1NC(=O)c2cc([N+](=O)[O-])cc(F)c2OCC[C@@H](C(N)=O)NC(=O)[C@H](CCCCN)NC1=O	0	8%	-0.4	9	4	-41	-0.8%
CC1(C)CC(NC(=O)c2cccc(S(=O)(=O)Nc3cccc(Cl)c3)c2)CC(C)(C)N1	-19	x	-2.8	2	16	-2	1.4%
CN(C)CCN1CCN(C2CN(Cc3ccccc3)S(=O)(=O)C2)CC1 (stereo not given)	4	x	-3.4	x	-7	-2	1.8%
c1ccc(-c2ncc(CSc3nncn3-c3ccccc3)s2)cc1	0	-9%	-3.8	26	17	-20	-4.1%
C=CCOC(=O)C1=C[C@@H](c2cn(C(C)=O)c3ccccc23)C[C@@H](OCc2ccc(CO)cc2)O1	3	x	0.1	x	1	-12	0.6%
CCOc1cc(/C=N/n2nnnc2N)ccc1OCc1c(C)no[n+]1[O-]	-9	1%	-2.8	-1	-12	-11	12%
Additional records follow:
SMILES	CtBP-E1A blk	Sfp inh	D2 agonist	TRPV1 potentiator	Six1-Eya2 inh	D2 potentiator	PINK1 modulator
CCC(CC)NC(=O)CN(c1ccccc1OC)S(=O)(=O)c1cccs1	1	16%	-2.7	-4	7	-11	1.2%
COc1cc(/C=C2/C(=N)N3OC(C)=CC3=NC2=O)ccc1OC(=O)c1ccco1	-2	-1%	-6.1	-4	8	-11	4.8%
Cc1ccc(C)c(CSc2nnc([C@@H](N)C(C)C)o2)c1	10	-8%	-3.7	-18	-1	-4	29%[38.3 µM]
COc1cccc(C(=O)C[n+]2ccccc2/C=N/O)c1	0	-3%	-0.7	-3	-8	-9	-0.6%
COC(=O)c1c(NC(=O)c2ccc(Br)o2)sc(C)c1C	16	-15%	0.5	-3	5	4	x
CCC(=O)c1ccc(OCCn2cncn2)cc1	8	10%	-0.9	1	2	-5	-1.3%
C[C@@H]1CC=C[C@H]2[C@H]1C(=O)N(Cc1ccccc1)[C@H]2c1ccc(-c2ccc(F)cc2)cc1F	-2	-7%	-2.8	-14	-7	-7	7.1%
COc1ccc(CNCCNC(=O)c2ccco2)c(OC)c1OC	6	-3%	2.0	11	5	-18	-2.1%
CC(C)CC(=O)Nc1ccc2oc(-c3cccnc3)nc2c1	4	5%	-0.7	-11	-1	-9	-4.2%[38.3 µM]
Cc1c(NC(=O)c2ccccc2NS(=O)(=O)c2ccc(F)cc2)c(=O)n(-c2ccccc2)n1C	-1	17%	-1.7	10	-1	-11	3.9%[38.3 µM]
O=C(Nc1ccc(CN2CCS(=O)(=O)CC2)cc1)c1ccc(Cl)cc1	6	3%	1.0	0	8	-7	-1.0%
CCOc1ccc(N(CC(=O)NN=C2CCN(C)CC2)S(C)(=O)=O)cc1	11	9%	-0.4	10	6	-14	0.0%
Cc1cccc(-n2c(-c3csc4ccccc34)n[nH]c2=S)c1	-1	u	1.0	-1	4	-18	-0.1%
